Compound activity: PubChem, National Center for Advancing Translational Sciences (NCATS)
NPR1 antag = Natriuretic polypeptide receptor (hNpr1) antagonism - Primary qHTS; Potency, µM (highest dose often 46.3 µM), for the others: top-dose activity change, negative = inhibition, hits mostly inhibitors; Atrial natriuretic peptide receptor 1 (Homo sapiens), P16066; HEK293 hNpr1 GloSensor cGMP, ANP-stimulated luminescence; 76,000 tested, 1.6% active; active = well fitted inhibition curve with a large enough effect; inconclusive = small, poorly fitted or top-dose-only effect; inactive = no such curve, though single readings can be large or run the other way;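 note: nearly all actives have a fitted effect of over 60% in size; nearly all hits also lower the signal before the agonist is added; a reference antagonist and vehicle were the controls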
Target sequence (P16066 whole entry, looked up): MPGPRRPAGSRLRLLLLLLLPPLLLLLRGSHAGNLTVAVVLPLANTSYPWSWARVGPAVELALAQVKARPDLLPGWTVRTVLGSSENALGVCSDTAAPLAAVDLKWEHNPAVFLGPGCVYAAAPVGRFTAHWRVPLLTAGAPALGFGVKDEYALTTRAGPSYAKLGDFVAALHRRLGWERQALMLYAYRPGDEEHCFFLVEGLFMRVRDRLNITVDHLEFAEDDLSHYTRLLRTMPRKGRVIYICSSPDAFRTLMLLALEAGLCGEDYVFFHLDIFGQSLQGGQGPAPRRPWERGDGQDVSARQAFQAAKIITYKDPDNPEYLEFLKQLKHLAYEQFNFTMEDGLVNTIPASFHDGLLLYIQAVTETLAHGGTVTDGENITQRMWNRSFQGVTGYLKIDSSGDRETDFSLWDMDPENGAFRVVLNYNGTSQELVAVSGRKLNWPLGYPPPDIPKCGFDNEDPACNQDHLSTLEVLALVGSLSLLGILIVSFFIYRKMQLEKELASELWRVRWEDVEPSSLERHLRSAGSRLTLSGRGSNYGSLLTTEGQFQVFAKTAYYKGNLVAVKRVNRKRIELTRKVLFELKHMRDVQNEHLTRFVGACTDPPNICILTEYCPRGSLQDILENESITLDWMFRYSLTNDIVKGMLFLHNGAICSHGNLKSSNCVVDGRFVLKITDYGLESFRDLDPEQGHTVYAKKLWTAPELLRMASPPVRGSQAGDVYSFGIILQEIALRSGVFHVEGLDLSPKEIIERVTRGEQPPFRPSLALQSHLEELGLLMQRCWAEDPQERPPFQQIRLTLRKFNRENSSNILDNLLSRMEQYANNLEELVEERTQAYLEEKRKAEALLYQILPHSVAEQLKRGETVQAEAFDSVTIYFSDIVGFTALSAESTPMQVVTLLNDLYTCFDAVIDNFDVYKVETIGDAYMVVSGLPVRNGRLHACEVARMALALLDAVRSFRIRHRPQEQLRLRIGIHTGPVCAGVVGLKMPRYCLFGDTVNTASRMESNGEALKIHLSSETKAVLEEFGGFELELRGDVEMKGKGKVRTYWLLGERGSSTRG
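HEK293 cells stably expressing human Npr1 and cGMP GloSensor pGS-40F, loaded 2 h with 2% GloSensor reagent, given compound 30 min at room temperature. Luminescence read before and 20 min after 0.1 nM hNppA.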
Active calls of the source: *; ? = inconclusive; [ ] = remark or other dose. % is set by controls: 0 for no effect and ±100 for the full control effect; potency is the fitted concentration of half-maximal effect. The list is partial; rates above refer to the full screens.

SMILES | NPR1 antag
COc1ccccc1C(=O)N1CCCCCC1CN1CCc2ccccc2C1 (stereo unspecified) | -12%
O=C(N[C@H]1CCOC[C@H]1C1CCOCC1)c1cncs1 | 3%
Nc1nc(C2CC(O)C2)cc(N2CCc3sccc3C2)n1 (stereo unspecified) | -1%
Cc1ccn2cc(C(=O)N3CCC(n4nccc4NC(=O)CC(C)C)CC3)nc2c1 | 6%
O=C(c1ccoc1)N1C[C@H]2OC(=O)N(CCCN3CCOCC3)[C@H]2C1 | 7%
CC[C@H]1CN(C(=O)c2ccc(F)cc2)CC[C@H]1CC(=O)NCc1ccccc1 | 2%[70.6 µM]
CCn1nc(C)c(-c2cc(C(=O)N3CCc4nc5cc(-c6ccccc6)[nH]n5c(=O)c4C3)no2)c1C | 3%
CN(c1cc(=O)c2ccnc(-c3ccc(O)c(F)c3)c2o1)C1CCOCC1 | -3%[70.6 µM]
O=C(Nc1ccccn1)C1CN(Cc2cccnc2)CC12CCOCC2 (stereo unspecified) | 3%
COc1ccc(-c2cnc3n[nH]c(-c4sccc4C)c3n2)cc1OC | -9%[70.6 µM]
CSc1ccc(-c2nc(CN(C)Cc3cc(C)no3)c(C)o2)cc1 | 0%
O=C(CCC[C@H]1NC[C@@H]2C[C@H]1CN(Cc1ccccc1)C2)NCc1ccccn1 | 3%
O=C(CCC[C@@H]1[C@H]2CCCN3CCC[C@@H](CN1C(=O)Nc1ccccc1F)[C@@H]23)Nc1ccccc1 | 5%
O=C(OCc1ccccc1)N1CCCC2(C1)C(=NC1CCCCC1)NC(=O)N2c1cccnc1 (stereo unspecified) | 0%
Cn1cccc1C(=O)N[C@H]1C[C@@H](C(=O)O)N(C(=O)CSCC(=O)N2C[C@@H](NC(=O)c3cccs3)C[C@H]2C(=O)O)C1 | 2%
O=C(Nc1ccc2c(c1)OCO2)C1CN(S(=O)(=O)c2cccnc2)CC12CCCCC2 (stereo unspecified) | -3%
COc1ccc(O[C@H]2COCCN(C(=O)c3ccc(OC)cc3)C2)cc1 | -1%[70.6 µM]
CN1C(=O)c2cccn2CC1CNC(=O)c1ccccc1F (stereo unspecified) | 0%
O=C(c1ccccc1OCC1CCCN(Cc2ccc(F)cc2Cl)C1)N1CCOCC1 (stereo unspecified) | 0%
COc1ccc(C(=O)Nc2ccc([C@H]3OCC(=O)N(C(C)C)[C@@H]3CO)cc2)cc1 | -8%[70.6 µM]
NC[C@H]1O[C@@H](CO)[C@@H](O)[C@H]1N1CCN(c2ncccn2)CC1 | -6%[70.6 µM]
CN1[C@@H](CCC(=O)NCc2ccco2)CNC(=O)[C@@H]2[C@H]1CCN2Cc1ccc(O)cc1 | 0%[70.6 µM]
CC(=O)N1CCC(NC[C@@H]2C=C(C)[C@H](Cc3nc4ccccc4n3C)C[C@H]2C(C)C)CC1 | 1%
Cc1cc2nc(CO[C@H]3CN(Cc4ccc5c(c4)OCO5)C[C@H]3F)[nH]c2cc1C | -18%[70.6 µM]
O=C(NCc1csc(-c2cnccn2)n1)C1NCCc2[nH]cnc21 (stereo unspecified) | -1%
The results go on.
SMILES | NPR1 antag
CN1CCCC1c1nc(C2CN(C(=O)CCCc3c[nH]c4ccccc34)C2)no1 (stereo unspecified) | 3%
CCOCCOC1CCN(C(=O)c2ccc(OC)cc2)CC1 | 1%
COc1ccc(-c2nnc(C[C@@H]3C[C@@H](C(C)C)[C@H](CNC(=O)c4ccc(F)cc4)C=C3C)o2)cc1 | ?
COc1cccc(CNC(=O)[C@H]2CCC[C@H]2NC(=O)c2cnc(C)cn2)c1 | 1%
COCCOCC(=O)N1CCC2(CC1)NCCc1c2[nH]c2ccc(OC)cc12 | 14%
CN(C)Cc1nnc(C2CCN(C(=O)CCCn3cncn3)CC2)n1C | 1%
C#CCNC(=O)CC[C@H]1CNC(=O)[C@@H]2[C@@H](CCN2Cc2ccc(C(F)(F)F)cc2)N1C | -4%
NC1(Cc2cc(COc3ccccc3)on2)COC1 | 7%[70.6 µM]
COc1ccc2c(c1)c(CN1CCCC(c3[nH]ccc3C(N)=O)C1)cn2C (stereo unspecified) | -5%
CCOc1ccc(C(=O)N2CCC[C@H]2c2nc(-c3ccccc3Cl)no2)cc1 | -13%
CCc1noc(-c2ccn3c(CNC(=O)c4ccc(C)c(C)c4)nnc3c2)n1 | -9%
COC(=O)c1cn([C@H]2CO[C@H]3[C@@H]2OC[C@@H]3NCc2ccco2)nn1 | 3%[70.6 µM]
CC(C)NC(=O)N(C1CC1)C1CCOC2(CCN(C(=O)c3ccc4nc[nH]c4c3)CC2)C1 (stereo unspecified) | 1%
CC(C)CCNC(=O)N1CCC2(CC1)CC(N(Cc1ccc(F)cc1)C1CC1)CCO2 (stereo unspecified) | 1%
COc1cccc(N2C(=O)NC(=NC3CCCCC3)C23CCN(C(=O)c2ccccc2F)C3)c1 (stereo unspecified) | 6%
CCn1c(-c2ccccc2)nn(CC(=O)NCc2noc(-c3ccco3)n2)c1=O | 8%
N#Cc1cccc(C(=O)Nc2ccc([C@H]3OCC(=O)N(Cc4ccccc4)[C@@H]3CO)cc2)c1 | 5%
CN(C)C[C@@H]1CN(c2ncccn2)C[C@H]1NC(=O)COc1ccc(Cl)cc1 | -2%
CNc1nccc(N2CCC(CC(=O)NCCN3CCOCC3)CC2)n1 | -1%
COCCN1CC2(CCCN(c3cc(C)c4ccccc4n3)C2)CCC1=O (stereo unspecified) | -1%
CSCC(=O)N1CCCC(CCc2cccc(F)c2)C1 (stereo unspecified) | -19%
O=C(Nc1cccc(C(F)(F)F)c1)c1cnc2c(c1)N(Cc1ccccc1)CCC2 | -30%[70.6 µM]
N#Cc1ccc(C(=O)N2CC[C@@H](CC(=O)O)[C@@H](CC3=NCCc4ccccc43)C2)cc1 | 3%[70.6 µM]
CN1C[C@@H](NS(=O)(=O)Cc2ccccc2)C[C@H]1c1nc(Cc2ccccc2)no1 | 1%[70.6 µM]
Cc1ccccc1N1CCN(C(=O)c2ccc3c(c2)N(C)C2CCCCCN2C3=O)CC1 (stereo unspecified) | 0%
Next part:
SMILES | NPR1 antag
COc1cc(F)ccc1-c1cc2c(ccn2CC2CCN(C)CC2)c(N2CCOCC2)n1 | -2%[70.6 µM]
Cc1ncccc1C(=O)N1CCC2(CC1)NCCc1c2[nH]c2ccccc12 | 12%
COc1cccc(C(=O)NCc2nnc3ccc(-c4ccc(C)cc4)nn23)c1OC | -21%
CCS(=O)(=O)NCC1(COc2cccc(C)n2)C[C@@H](O)[C@@H](O)C1 (stereo partly specified) | 5%[70.6 µM]
O=C(NC1CCCN(c2cc(-c3ccccc3)[nH]n2)C1)c1ccsc1 (stereo unspecified) | -21%
FC(F)(F)c1ccc(CN2CCC3(CC2)CC(c2cccc(C(F)(F)F)c2)=NO3)cc1 | -9%
Cc1nnnn1Cc1ccc(C(=O)N2CCc3nc(-c4cn[nH]c4)[nH]c3C2)cc1 | 1%
CN(CC1CCOC1)C(=O)Cc1ccccc1 (stereo unspecified) | 6%
Cc1cc2nc3n(c(=O)c2n1CC(=O)Nc1cccc(C#N)c1)CCCC3 | -8%
O=C(Cc1cccc(F)c1)N1CCC(n2cc(-c3nc(-c4ccccc4)no3)nn2)CC1 | 1%
CCCCc1ccc(NC(=O)CN2C(=O)NC3(CCCCC3)C2=O)cc1 | -1%
CCC1(N2CCN(C(=O)Nc3ccc(Cl)cc3C)CC2)CCN(C(=O)NC)C1 (stereo unspecified) | -8%
O=C([C@@H]1C[C@H](Oc2ccccc2)CN1C(=O)COc1ccccc1)N1CCOCC1 | 3%
Cc1ccccc1C(=O)N1CCCN(c2nnc3ccc(Cl)cn23)CC1 | -5%
CCc1ccc(Nc2nc(-c3ccccc3F)no2)cc1 | 13µM*
Cc1cccc(C(=O)N2CCCC(c3noc(COc4ccccc4)n3)C2)c1 (stereo unspecified) | -11%
O=C1NC2(CCN(C(=O)c3ccc(F)cc3)CC2)COc2ccccc21 | 15%
COc1cc(CN2CCN(c3ccc(C#N)cn3)CC2CCO)cc(OC)c1 (stereo unspecified) | 5%
CC(C)c1ccc(CC(=O)N2CCCc3ncc(C(=O)NCc4cccc(F)c4)cc32)cc1 | -4%
CS(=O)(=O)N1CCc2ccc(C(=O)NCc3ccc(N4CCCCC4)cc3)cc21 | -3%
CN(C)C[C@@H]1CN(c2ccncn2)C[C@H]1NC(=O)c1ccco1 | 1%
O=C(NC1C[C@H]2CC[C@@H](C1)N2S(=O)(=O)c1cccs1)c1ccncc1 (stereo partly specified) | 3%
O=C(c1cc2n(n1)CCCN(Cc1ccccc1)C2)N1CC(n2cccn2)C1 | 6%
CC1=C[C@@H](CC#N)[C@H](C(C)C)C[C@H]1CC(=O)NC1CCCCC1 | 1%[70.6 µM]
c1ccc(-n2cc(CN3CCCCC3c3ccccn3)nn2)cc1 (stereo unspecified) | 0%
Next part
SMILES | NPR1 antag
CCOCCOC1CCN(C(=O)c2ccc(F)cc2)CC1 | 0%
CCC1=C(C(=O)OC)C(c2cc(OC)ccc2OC)N2C(CC(=O)NC3CC3)=CSC2=N1 (stereo unspecified) | -1%
COc1ccc(NC(=O)c2cc(NC(=O)C3CC3)cc3nc(C)ccc23)cc1 | -2%
COCc1nnc2n1CCC(NC(=O)CCn1cccn1)CC2 (stereo unspecified) | 3%
Clc1ccc(-c2cnc([C@@H]3COCCN3C3CCNCC3)[nH]2)s1 | -5%[70.6 µM]
CC(C)N1C(=O)C2(CCCC2)C1C(=O)N1CCCC1 (stereo unspecified) | 8%
O=C(NCCc1noc(-c2ccncc2)n1)C1(S(=O)(=O)c2ccc(Cl)cc2)CC1 | 2%
Cc1cc(C)n(CC(=O)N[C@@H]2CN(Cc3ccccn3)C[C@H]2CN(C)C)n1 | 7%
CS(=O)(=O)N1CCCC(c2nc(-c3ccccc3)no2)CCNC(=O)CC1 (stereo unspecified) | 0%
COc1nccnc1NC1CCN(C(=O)NCc2ccc(F)cc2)CC1 | 0%
COc1cccc(CNC(=O)N(C)C2CCc3nn(C)c(=O)n3CC2)c1 (stereo unspecified) | 2%
O=C(C1CCCN1c1nc2ncccc2o1)N1CCOCC1 (stereo unspecified) | 6%[70.6 µM]
O=C1CC(c2ccccc2)N(C(=O)CNS(=O)(=O)c2ccc3c(c2)CCC3)CCCCCCN1 (stereo unspecified) | -10%
Cc1ccc(NC(=O)c2ccc3c(c2)N(C)C2CCCCN2C3=O)cc1F (stereo unspecified) | 0%
Cc1cc(C)c(CNC(=O)c2nc(-c3cccc(O)c3)cc3[nH]ccc23)c(=O)[nH]1 | 3%[70.6 µM]
COc1ccc(C(C)NC(=O)COc2ccc(NC(C)=O)cn2)cc1OC (stereo unspecified) | -3%
CCSc1ncc(-c2c(-c3ccccc3)ncn2CC[C@@H](C)CO)cn1 | 2%
Cc1cccc2c1nc1n2[C@@H](CNCc2ccc(S(C)(=O)=O)cc2)COC1 | 25µM*
CN(CC1CCOC1)C(=O)Nc1ccc(Cl)cc1 (stereo unspecified) | -13%
O=C(NCc1nnc2cc(-c3nc(C4CC4)no3)ccn12)c1ccccc1 | 4%
CCc1nc2c(c(-c3ccc(O)cc3)n1)CCN(Cc1cncs1)CC2 | 6%
CCOc1ccccc1CNC(=O)c1c(OCC)cc(=O)n2c1CCCC2 | -1%
COCc1nc(C2CCN(C(=O)c3cn(C)cn3)C2)no1 (stereo unspecified) | 10%
CCOCc1nc(C2CCCN(C(=O)c3cccs3)C2)no1 (stereo unspecified) | 12%
Cc1cc(=O)n(CC(=O)Nc2ccc(C)c(Cl)c2)c(N2CCN(c3ccccc3)CC2)n1 | -10%
COc1ccc(-c2noc(CC3CCN(C(=O)c4ccccc4OC)CC3)n2)cc1 | 10µM*
COc1ccc(CCNC(=O)c2ccc(Cn3ccn4nc5c(c4c3=O)CCCC5)cc2)cc1OC | ?

Entries shown so far that contain an NH in an aromatic ring, in the order listed:
SMILES | NPR1 antag
CCn1nc(C)c(-c2cc(C(=O)N3CCc4nc5cc(-c6ccccc6)[nH]n5c(=O)c4C3)no2)c1C | 3%
COc1ccc(-c2cnc3n[nH]c(-c4sccc4C)c3n2)cc1OC | -9%[70.6 µM]
Cc1cc2nc(CO[C@H]3CN(Cc4ccc5c(c4)OCO5)C[C@H]3F)[nH]c2cc1C | -18%[70.6 µM]
O=C(NCc1csc(-c2cnccn2)n1)C1NCCc2[nH]cnc21 (stereo unspecified) | -1%
CN1CCCC1c1nc(C2CN(C(=O)CCCc3c[nH]c4ccccc34)C2)no1 (stereo unspecified) | 3%
COCCOCC(=O)N1CCC2(CC1)NCCc1c2[nH]c2ccc(OC)cc12 | 14%
COc1ccc2c(c1)c(CN1CCCC(c3[nH]ccc3C(N)=O)C1)cn2C (stereo unspecified) | -5%
CC(C)NC(=O)N(C1CC1)C1CCOC2(CCN(C(=O)c3ccc4nc[nH]c4c3)CC2)C1 (stereo unspecified) | 1%
Cc1ncccc1C(=O)N1CCC2(CC1)NCCc1c2[nH]c2ccccc12 | 12%
O=C(NC1CCCN(c2cc(-c3ccccc3)[nH]n2)C1)c1ccsc1 (stereo unspecified) | -21%
Cc1nnnn1Cc1ccc(C(=O)N2CCc3nc(-c4cn[nH]c4)[nH]c3C2)cc1 | 1%
Clc1ccc(-c2cnc([C@@H]3COCCN3C3CCNCC3)[nH]2)s1 | -5%[70.6 µM]
Cc1cc(C)c(CNC(=O)c2nc(-c3cccc(O)c3)cc3[nH]ccc23)c(=O)[nH]1 | 3%[70.6 µM]
